Sa RN4220 lethal: kills Staphylococcus aureus RN4220 | AID 1259311 | actives 0.33% (n = 330,000) | inhibition, % (concentration not given with the values) | S. aureus RN4220 growth, OD600, 16 h;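 active = z-score of -3 or lower and OD600 up to 0.18 on both plates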;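 also: plate controls were untreated cells for no effect and reference antibiotic for full effect; stock transfer was 100 nL into about 80 µL; one replicate is shown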
Mtb hypoxia inh: Mtb hypoxia fluorescent reporter inhibition | AID 1159583 | fluorescence inhibition, % (no concentration beside the values) | M. tuberculosis hypoxia-regulated fluorescent reporter, fluorescence | actives 0.1% (n = 300,000);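 active = 35 to 45% if threefold the growth effect, above 45% if 1.5-fold the growth effect; inactive = the rest, general growth blockers included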;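 also: wells of about 50 µL received 100 nL stock; 0% = vehicle wells and 100% = reference inhibitor wells; whole bacteria with a GFP reporter of the hypoxia response; strong numbers were not always called active; many hits fall short of the cut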
ugtP null kill: compounds lethal to S. aureus RN4220 ugtP deletion mutant; OD600 growth, 16 h; some inactives read as strong as hits; growth inhibition, % (test concentration not listed); actives 0.54% (n = 330,000);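 active = z-score under -3 and OD600 up to 0.15 on both plates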;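 also: plate controls were untreated wells for no effect and antibiotic for full effect; wells of about 80 µL received 100 nL stock; the first replicate is given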
PrP 5UTR inh: suppresses PrP 5' UTR mRNA reporter expression; cell-based PrP 5' UTR mRNA reporter, plate reader; actives 0.35% (n = 340,000); inhibition, % (concentration not given with the values);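 active = every replicate at 50% or more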;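 also: 0 = median of the neutral control wells; tested in H4 reporter cells; numbers are from one replicate; inactives centre near -14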
BJeLR viability: BJeLR cell viability loss; actives 0.17% (n = 300,000); inhibition, % (no concentration beside the values); BJeLR (HRASV12) viability, CellTiter-Glo ATP luminescence, 48 h; reference of the scale not given here;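 active = replicate mean above 50%; inconclusive = above 50% but judged a plate artefact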;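 also: 50 nL library stock added to about 25 µL; numbers are from one replicate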
Bead autofluor: compound fluorescence in toxin protease inhibitor counterscreen; compound autofluorescence counterscreen, microsphere flow cytometry; active compounds read high; fluorescence intensity (no concentration beside the values); actives 3.1% (n = 360,000);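 active = at least 3 SD above the mean of all compounds, about 16000 in these data; inconclusive = too few beads counted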;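 also: 100 nL of 1 mM stock went into each well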
Mtb hypoxia inh growth: further read-out of Mtb hypoxia inh, marked with its call; growth inhibition, %; measured here: M. tuberculosis growth (absorbance);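 0% = vehicle and 100% = reference antibiotic; read after six days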
Starred values were filed as active, the others as inactive; ? = inconclusive; . = no result given.

SMILES | Sa RN4220 lethal | Mtb hypoxia inh | Mtb hypoxia inh growth | ugtP null kill | PrP 5UTR inh | BJeLR viability | Bead autofluor
Cc1ccc(CNC(=O)c2c(-c3ccccc3)noc2C)cc1 | 12 | 17 | 2 | -2 | -17 | -16 | 3893
Cc1ccc(C2C3C(=O)N(c4ccccc4)C(=O)C3N3CCCN23)cc1 (stereo not given) | -1.1 | -17 | 4 | 2 | -29 | -6 | 5645
Cc1cccc2c(=O)c(Br)c(C)n(Cc3ccccc3)c12 | 1.3 | 13 | 6 | 12 | -19 | 8 | 3416
CCC1=NN(C(=O)Cc2ccc([N+](=O)[O-])cc2)C(O)(c2ccncc2)C1 (stereo not given) | 7.1 | -9 | -8 | 11 | 0 | -3 | 2506
CCC(=O)NC(c1cccs1)c1ccc2cccnc2c1O (stereo not given) | 8.6 | 16 | 6 | 11 | 30 | 19 | 4307
CCC(C)C(C(=O)N1CCN(C(=O)OC(C)(C)C)CC1)n1cc(CCCN=C(NC(=O)OC(C)(C)C)NC(=O)OC(C)(C)C)nn1 (stereo not given) | 8.8 | 4 | 8 | 12 | . | . | .
O=C(CCN1C(=O)/C(=C/c2ccc(Cl)cc2)SC1=S)NCCCn1ccnc1 | 5.0 | 8 | 4 | 13 | -1 | 2 | 5166
Cc1cc(C)cc(N(CC(=O)N2CCCCCC2)S(C)(=O)=O)c1 | 1.9 | 8 | 4 | 2 | -15 | -3 | 3512
Cc1ccc(CCSCC(=O)O)cn1 | 5.0 | -11 | 7 | 3 | -10 | 1 | 5997
Cc1ccc(Cc2ccccc2C(=O)O)cc1 | 3.0 | 8 | 9 | 1 | -38 | . | 3679
Cc1cccc(NS(=O)(=O)c2ccc(C(=O)NCC(c3ccco3)N(C)C)cc2)c1C (stereo not given) | -2.1 | 3 | -6 | -2 | 2 | 12 | 4503
O=S(=O)(c1ccccc1)N1N=C(c2ccc(O)cc2)CC1c1ccco1 (stereo not given) | 5.8 | -6 | -5 | 6 | -1 | 5 | 6452
S=c1[nH]ncn1/N=C/c1ccccc1 | . | . | . | . | -10 | -3 | 4290
CC1=CC(C)(C)Nc2ccc(OC(=O)c3ccco3)cc21 | 5.1 | 9 | -2 | 0 | -22 | -4 | 6052
N#Cc1ccc(N2CCc3ccccc3C2)c([N+](=O)[O-])c1 | 11 | 11 | 2 | -12 | 15 | 9 | 9277
CCOCCCNC(=O)Cn1cnc2c(cnn2-c2ccc(F)cc2)c1=O | 3.1 | 3 | 1 | 4 | -8 | 2 | 3798
CCCNC(=O)CN1CCN(S(=O)(=O)c2ccc(Br)s2)CC1 | 4.2 | 3 | 3 | 9 | -17 | . | 5747
CCOC(=O)C(C(=O)c1ccccc1)C1CC(C)NC(=S)N1 (stereo not given) | 1.6 | -3 | -9 | 1 | -21 | 11 | 2161
O=C(O)c1ccc(-c2nnn(Cc3cccc(C(F)(F)F)c3)n2)cc1 | 6.6 | -1 | 2 | 12 | -7 | -8 | 4218
CS(=O)(=O)Nc1ccc2[nH]c(=O)[nH]c2c1 | 5.5 | -2 | -4 | 7 | -4 | -1 | 4262
O=S1(=O)CCC(NC2CCCC2)C1 (stereo not given) | 2.4 | 14 | 2 | -1 | -13 | -6 | 3918
CC(NC(=O)c1ccccc1NS(C)(=O)=O)c1ccccc1 (stereo not given) | 1.6 | . | . | -5 | -19 | -1 | 2901
CCCN1CCC(N2CCN(c3cccc(C(F)(F)F)c3)CC2)CC1 | 0.9 | -1 | 6 | 2 | 3 | 5 | 11511
O=C(O)c1ccccc1CC(CCc1ccccc1)C(=O)O (stereo not given) | 0.9 | 11 | 8 | -1 | -31 | . | 4210
O=C(N/N=C/c1cccnc1)C(O)(c1ccccc1)c1ccccc1 | . | . | . | . | -8 | 2 | 4639
COC(=O)N/N=C\c1ccc(OC/C=C/c2ccccc2)c(OC)c1 | . | . | . | . | 5 | 3 | ?
CCc1cc(C(=O)N2CCCC(Nc3ccc(F)c(F)c3)C2)n(C)n1 (stereo not given) | -2.2 | 4 | 1 | 0 | -18 | 3 | 5209
CC(C)NC(C)C(=O)c1ccc2ccccc2c1 (stereo not given) | 7.7 | 11 | 9 | 2 | -11 | 4 | 4566
O=C(/C=C/c1ccc([N+](=O)[O-])cc1)NCCSCc1ccco1 | -3.5 | -4 | 5 | 11 | -8 | -10 | 2053
CN(C)c1ccc(/C=C/C(=O)c2ccc(O)cc2)cc1[N+](=O)[O-] | -0.8 | -1 | 4 | 5 | -43 | -13 | 4786
CCc1ccc(C(=O)OCC(=O)N(CCOC)c2c(N)n(Cc3ccccc3)c(=O)[nH]c2=O)cc1 | -0.4 | -2 | 7 | 5 | -23 | -3 | 5761
CCCCC(=O)Nc1sc2c(c1C(N)=O)CCC2 | 8.0 | -1 | -2 | 7 | -21 | 0 | 7645
O=S(=O)(NCCCCCCNS(=O)(=O)c1c(F)cccc1F)c1ccc2c(c1)OCCO2 | 9.4 | 16 | 6 | 1 | -16 | . | 3562
CC(CC(=O)N1CCc2ccccc21)n1cccn1 (stereo not given) | 2.6 | -1 | -1 | 2 | -5 | 8 | 6529
CCNC(=O)CSc1nc2cc(S(=O)(=O)Nc3ccc(OC)cc3)ccc2o1 | -7.3 | 9 | -13 | 9 | -12 | 8 | 6512
O=C(NCc1ccco1)c1cccc2ccccc12 | 3.5 | . | . | -6 | -14 | 6 | 3300

Given with values under each structure: 2 of the compounds above.
Below each SMILES – Sa RN4220 lethal	Mtb hypoxia inh	Mtb hypoxia inh growth	ugtP null kill	PrP 5UTR inh	BJeLR viability	Bead autofluor
- O=C(/C=C/c1ccc([N+](=O)[O-])cc1)NCCSCc1ccco1
  -3.5	-4	5	11	-8	-10	2053
- CN(C)c1ccc(/C=C/C(=O)c2ccc(O)cc2)cc1[N+](=O)[O-]
  -0.8	-1	4	5	-43	-13	4786

Later entries.
SMILES | Sa RN4220 lethal | Mtb hypoxia inh | Mtb hypoxia inh growth | ugtP null kill | PrP 5UTR inh | BJeLR viability | Bead autofluor
COc1ccccc1N1CCN(CCCCN2C(=O)c3ccccc3C2=O)CC1 | 0.5 | -8 | 0 | -8 | -26 | 7 | 5372
Cc1nc(SCC(=O)c2ccc(F)c(F)c2)[nH]c(=O)c1Oc1ccc(Cl)cc1 | 9.3 | 5 | 12 | -1 | -47 | 10 | 5955
Cc1cc(C)n(-c2nncn2N=Cc2ccccc2F)n1 | 3.8 | 5 | 7 | -2 | . | . | .
O=C(COC(=O)C1CCCCC1)Nc1cccc(Br)c1 | 3.3 | 3 | 8 | 2 | -5 | . | 6172
O=C(Nc1ccc(OCc2ccccc2)cc1)c1ccccc1 | 3.7 | -2 | 6 | 5 | -85 | -1 | 2270
COc1ccc(-c2nc3nc(N)nn3cc2C)cc1F | 7.4 | 9 | -3 | 5 | -17 | -2 | 3507
Cc1cc(NC(=S)Nc2ccccc2)ccc1Br | -7.5 | 3 | 8 | -1 | -15 | 3 | 12140
CCOc1ccc(C=NN2C(C)CCCC2C)cc1OC (stereo not given) | 3.9 | 1 | -9 | 13 | . | . | .
COc1ccc(CCc2nnc(N)s2)cc1OC | 3.8 | -3 | 6 | 2 | -9 | -8 | 3889
CCOC(=O)/C(C#N)=C1\C(=O)N(Cc2ccccc2)c2ccccc21 | 10 | 8 | 8 | -18 | -3 | 2 | 4394
CC(=O)Nc1ccc2c3c(cccc13)CC2 | -1.6 | 9 | 2 | -5 | -21 | 6 | 10027
Cc1cc(C(=O)NCc2ccc(S(N)(=O)=O)cc2)c(C)o1 | 1.9 | 8 | -3 | 3 | 0 | 13 | 11317
O=S(=O)(Nc1cc(S(=O)(=O)N2CCOCC2)ccc1NCC1CCCO1)c1ccccc1 (stereo not given) | 3.4 | 7 | -3 | 2 | -14 | . | 4037
Cc1cccc(NC(=S)NCc2ccc3c(c2)cc(C)n3C)c1C | -5.3 | 1 | 10 | -13 | -5 | -5 | 2076
CCC(C)(C)NC(=O)C(c1ccc(F)cc1)N(Cc1ccccc1)C(=O)c1cnccn1 (stereo not given) | 5.0 | -7 | 2 | -4 | -12 | -9 | 4556
CCCN1CNc2c(c(=O)[nH]c(=S)n2-c2ccccc2Cl)C1 | -0.2 | 14 | 12 | 3 | -11 | . | 4422
Cc1cccc(OCCCC(=O)Nc2ccc(N3CCCCC3)cc2)c1 | 0.2 | . | . | 10 | -16 | 1 | 6855
Cc1ccc(NC(=O)COC(=O)CCNS(=O)(=O)c2ccc(C)c(C)c2)cc1 | 6.0 | 5 | 2 | 4 | -6 | -8 | 2004
O=C(NNC(=S)Nc1ccc(Cl)cc1Cl)c1ccc(N2CCOCC2)c([N+](=O)[O-])c1 | . | . | . | . | -18 | 1 | 2573
COc1ccc(CC(=O)Nc2cc(NC(=O)Cc3ccc(OC)c(OC)c3)cc(C(=O)O)c2)cc1OC | 5.5 | -5 | -3 | 4 | -22 | -1 | 3708
N#CCSc1nnc(-c2ccccc2O)n1Cc1ccccc1 | 6.9 | 15 | 6 | 9 | -38 | -9 | 5409
Cc1cccn2cc(-c3cccc(NC(=O)c4cccs4)c3)nc12 | 3.5 | -6 | 6 | -5 | -14 | 8 | 3308
CS(=O)(=O)N1CCN(C(=S)NCc2ccc(Cl)cc2)CC1 | 0.1 | 6 | 12 | 3 | -23 | 6 | 3243
NC(=NOC(=O)c1ccc([N+](=O)[O-])cc1)c1cccnc1 | 3.2 | 2 | 2 | 2 | . | . | .

In the list so far, 4 have bromine.
SMILES | Sa RN4220 lethal | Mtb hypoxia inh | Mtb hypoxia inh growth | ugtP null kill | PrP 5UTR inh | BJeLR viability | Bead autofluor
Cc1cccc2c(=O)c(Br)c(C)n(Cc3ccccc3)c12 | 1.3 | 13 | 6 | 12 | -19 | 8 | 3416
CCCNC(=O)CN1CCN(S(=O)(=O)c2ccc(Br)s2)CC1 | 4.2 | 3 | 3 | 9 | -17 | . | 5747
O=C(COC(=O)C1CCCCC1)Nc1cccc(Br)c1 | 3.3 | 3 | 8 | 2 | -5 | . | 6172
Cc1cc(NC(=S)Nc2ccccc2)ccc1Br | -7.5 | 3 | 8 | -1 | -15 | 3 | 12140

Remaining list, next part:
SMILES | Sa RN4220 lethal | Mtb hypoxia inh | Mtb hypoxia inh growth | ugtP null kill | PrP 5UTR inh | BJeLR viability | Bead autofluor
N#Cc1c(NC(=O)c2cc(-n3cnnc3)ccc2Cl)sc2c1CCCC2 | 4.5 | . | . | -4 | -6 | 0 | 2047
Cn1c(SCc2ccc(Br)cc2)nnc1-c1cccs1 | 7.6 | 21 | 17 | 7 | -17 | 8 | 16457*
N/C(=N\OC(=O)Cc1ccccc1)c1cccnc1 | 4.4 | 6 | 2 | 11 | -20 | 12 | 20077*
CCC(=O)N(CC(=O)Nc1sc(C)c(C)c1C(N)=O)C1CCCC1 | 3.6 | 12 | 9 | 6 | -9 | 1 | 5667
CCOc1ccc(S(=O)(=O)NCCC(=O)NCC(c2ccccc2OC)N2CCCC2)cc1 (stereo not given) | 0.8 | 5 | 2 | 2 | -6 | 5 | 4664
O=C(CSc1ccccn1)N/N=C/c1c[nH]c2ccccc12 | . | . | . | . | 0 | -3 | 4173
CCOc1ccc(C(=O)NCC(=O)N2CCc3ccccc3C2)cc1OCC | -0.4 | 15 | 14 | 12 | -2 | -8 | 4285
COc1ccc(C(=O)Nn2cc3c(c2-c2ccccc2)c(=O)n(C)c(=O)n3C)cc1 | 1.1 | 3 | 5 | 2 | -4 | -10 | 20615*
Cc1cccc(/C(N)=N/OC(=O)CCc2ccccc2)c1 | 6.4 | 8 | 11 | 18 | -46 | -11 | 10648
Cc1ccc(C(CC(=O)N2CCCC2)c2ccccc2)c(O)c1 (stereo not given) | 4.3 | -6 | 4 | 4 | -13 | 5 | 4003
CCCC[C@@H]1CNC(=S)N1CCc1cccc(F)c1 | . | . | . | . | -7 | -10 | 3857
Cc1cc(OCC(=O)NCC2CCC(C(=O)O)CC2)c2c3c(c(=O)oc2c1)CCC3 (stereo not given) | 2.8 | . | . | 4 | -31 | -2 | 4353
Cc1ccc(Cl)cc1N1CCN(C(=O)Cn2ncn3cccc3c2=O)CC1 | -3.4 | 0 | -1 | -5 | -11 | -20 | 6317
Cc1cc(NC(=O)c2ccc([N+](=O)[O-])cc2Cl)no1 | 2.5 | 3 | -1 | -2 | -40 | -5 | 2885
CCCCn1c(N)c(C(=S)NC(=O)CC(C)(C)C)c(=O)n(C)c1=O | 5.9 | -2 | -2 | 0 | -19 | 0 | 10348
O=C1C2C(c3ccc(F)cc3)N3C(=O)N(c4cccc(F)c4)C(=O)[C@@]3(Cc3ccccc3)C2C(=O)N1C1CCCCC1 (stereo not given in full) | 6.5 | -4 | 1 | -28 | . | . | .
CC1Cc2ccccc2N1C(=O)Cn1cc([N+](=O)[O-])ccc1=O (stereo not given) | 0.7 | 22 | 13 | 3 | -21 | . | 3905
